# Screening data as filed in PubChem BioAssay.
# miR-21 reporter: qHTS Assay for Modulators of miRNAs and/orActivators of miR-21; HeLa miR-21 FLuc reporter, luciferase, 48 h; Potency, µM (top dose mostly 38.3 µM), inactives show at the highest dose reporter change, positive = more light; 340,000 tested, under 10 active; active = well fitted rising curve with a large enough effect; inconclusive = small, poorly fitted or top-dose-only effect; inactive = no such curve, though single readings can be large or run the other way;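 further: % of control where 0% means no effect; miR-21 action dims this reporter so a rising signal means less miR-21 action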
#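 HeLa cells endogenously expressing miR-21, stably carrying CMV-driven firefly luciferase with a downstream miR-21 binding site, 2000 cells/well. Titrations up to approximately 40 uM, 48 hours; luciferase luminescence read.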
# GLA inh pH 4.5: qHTS Assay for Inhibitors of Human alpha-Galactosidase at pH 4.5; Alpha-galactosidase A (Homo sapiens), P06280; purified enzyme, 4-MU-alpha-Gal fluorescence, pH 4.5; activity change, negative = inhibition, % at 105 µM; 230,000 tested, under 10 active; inconclusive = small, poorly fitted or top-dose-only inhibition, or a rising curve; inactive = flat fitted curve, though single readings scatter; no compound was filed as active;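 further: 0% = full activity with enzyme and -100% = basal without enzyme; dose as in the result columns while the protocol names 77 µM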
# Target sequence (P06280 whole entry, looked up): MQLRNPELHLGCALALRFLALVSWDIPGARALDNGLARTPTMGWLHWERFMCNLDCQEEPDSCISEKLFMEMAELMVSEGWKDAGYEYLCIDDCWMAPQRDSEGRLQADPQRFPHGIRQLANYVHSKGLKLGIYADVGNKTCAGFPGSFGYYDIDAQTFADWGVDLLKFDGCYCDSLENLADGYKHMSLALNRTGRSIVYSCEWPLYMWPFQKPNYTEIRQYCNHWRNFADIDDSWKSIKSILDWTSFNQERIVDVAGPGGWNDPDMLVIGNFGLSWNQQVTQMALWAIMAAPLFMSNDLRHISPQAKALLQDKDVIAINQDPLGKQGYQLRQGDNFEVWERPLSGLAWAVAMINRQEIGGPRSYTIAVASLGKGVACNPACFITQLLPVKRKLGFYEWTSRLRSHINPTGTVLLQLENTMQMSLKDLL
# Rango-impB inh: qHTS Assay for Inhibitors of Rango (Ran-regulated importin-beta cargo) - Importin beta complex formation; Rango CFP/YFP FRET sensor + importin beta, 45 min; Potency, µM (top dose mostly 92.2 µM), for the others: at the top dose inhibition of complex formation; Importin subunit beta-1 (Homo sapiens), Q14974; AID 540263, 2011; 340,000 tested, 0.031% active; active = rising FRET ratio curve, often small or poorly fitted; inconclusive = mostly compound fluorescence or quenching in the first reads; inactive = flat curves in all reads;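 further: potency means the concentration at half of the fitted maximal effect; 0% = DMSO wells and 100% = buffer wells lacking importin beta; nearly all actives have a fitted effect of over 15% in size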
#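 Inhibition scored from the CFP 486 nm/YFP 530 nm FRET ratio 45 min after adding 0.125 microM importin beta to 50 nM Rango biosensor preincubated 5 min with compound (room temperature, PBS with DTT, Tween-20, BSA). No-importin wells as positive control.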
# Rango dissoc inh: qHTS Assay for Inhibitors of RanGTP induced Rango (Ran-regulated importin-beta cargo) - Importin beta complex dissociation; Snurportin-1 (Homo sapiens) + GTP-binding nuclear protein Ran (Homo sapiens) + Importin …; 340,000 tested, 0.071% active; AID 540253, 2011; Biochemical FRET Rango-importin beta, RanGTP-induced dissociation; Potency, µM (doses to about 46.1 µM), without a hit: at the highest dose activity change, negative = inhibition; active means falling FRET ratio curve, often poorly fitted, with flat reads before Ran was added; inconclusive means other falling curves, or compound fluorescence or quenching; inactive means flat or rising ratio curve;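 further: potency means the concentration at half of the fitted maximal effect; % of control where 0% means no effect; nearly all actives have a fitted effect of over 45% in size; -100% = wells without RanGTP and RCC1; the record marks most hits as doubtful in a second field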
#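 Rango/importin beta premix (0.1/0.25 uM final), PBS + 1 mM DTT + 0.02% Tween-20 + 0.1% BSA; cpd 5 min RT; FRET pre-read; + RanGTP-RCC1 (0.6 uM Ran, 2 mM GTP, 0.2 uM RCC1); 45 min RT; FRET post-read, ex 430, em 486/530 nm.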
# * marks the source's active call; other numbers are inactive results; ? = inconclusive; / = no result given. Not all compounds are listed; the hit share may differ from the screen's.
Compound	miR-21 reporter	Rango dissoc inh	GLA inh pH 4.5	Rango-impB inh
Cc1ccc(NS(=O)(=O)c2ccc(Cl)s2)nc1	1%	-3%	/	1.1%
Cc1ccc(S(=O)(=O)N(C)C)cc1NC(=O)COC(=O)Cc1cccs1	/	3%	/	-1.6%
COc1ccc(NC(=O)C2C3C=CC4(O3)C2C(=O)N(CCCN2CCCC(C)C2)C4C(=O)NC2CCCCC2)cc1 (centres undefined)	1%	-11%	/	?
COc1ccccc1C(=O)NCCC(=O)Nc1ccc(C)cn1	-13%	-8%	/	1.0%
Cc1nc(CC(=O)NNS(=O)(=O)c2cccc(Cl)c2Cl)cs1	/	-2%	/	3.5%
CCn1cc(CN2CCN(Cc3cccc(OC)c3)C(CCO)C2)c(C)n1 (centres undefined)	7%	15%	4	-3.7%
CCOc1ccc(S(=O)(=O)N2CCOCC2)c2ccccc12	-18%	4%	/	2.6%
Cc1ccc(NC(=O)C2CCN(S(=O)(=O)c3ccc4c(c3)NC(=O)C(C)S4)CC2)c(Cl)c1 (centres undefined)	24%	-15%	/	0.1%
Cc1ccc(C)c(S(=O)(=O)N2CCN(C(=O)CSC(=S)N3CCCC3)CC2)c1	/	13%	/	8.1%
CC(Sc1nnc(N)s1)C(=O)NCc1ccc2c(c1)OCO2 (centres undefined)	/	-10%	/	-3.9%
O=C(Cn1cnc2c(nnn2-c2ccc(F)cc2)c1=O)N1CCCC1	0%	-17%	-1	-3.4%
COc1ccc(C2CC(c3ccccc3)n3nc(NC(=O)c4cccs4)nc3N2)cc1 (centres undefined)	-10%	-9%	1	-0.7%
COc1ccc(NC(=O)C2=CCN(S(=O)(=O)c3ccccc3)CC2)cc1OC	3%	-8%	-7	-0.5%
COc1ccc(CC(=O)Nc2ccc(S(=O)(=O)N3CCCC3)cc2)cc1OC	/	6%	/	-2.6%
CC1=C(C(=O)OCCNC(=O)c2ccccc2O)C(c2ccccc2[N+](=O)[O-])C(C(=O)OCC2CCCO2)=C(C)N1 (centres undefined)	26%	1%	-5	-0.3%
CCOC(=O)C1CCN(C(=O)CCC(=O)NCCc2ccc(Cl)cc2)CC1	3%	-10%	/	0.1%
Cc1nonc1NC(=O)OCCN1CCOC1=O	4%	2%	-4	-1.3%
CCOC(=O)C1(CCOC)CCN(C(=O)c2sccc2C)CC1	1%	18%	-9	-1.2%
O=C1CC(N2CCC(c3nc4ccccc4o3)CC2)C(=O)N1c1ccc(F)cc1 (centres undefined)	2%	-15%	3	0.1%
CC1CCCCN1CCNC(=O)Cn1nc(-c2ccccc2)ccc1=O (centres undefined)	-1%	5%	-1	1.3%
Cc1ccc(NS(=O)(=O)c2c(C)[nH]c(=O)[nH]c2=O)cc1F	1%	-26%	/	-1.4%
Nc1nnnn1/N=C/c1ccccc1	0%	1%	/	6.1%
Cc1cc(C)nc(N/N=C/c2ccncc2)n1	4%	-6%	/	-1.6%
O=C(NC(=S)NNC(=O)c1cccs1)c1ccc(Br)o1	-11%	0%	-6	-1.7%
COc1ccc(NC(=O)CN2CCCCC2)cc1	-22%	-6%	6	6.1%
CN(C)S(=O)(=O)c1cccc(COc2ccccc2C(=O)Nc2ccccc2)c1	10%	18%	/	4.5%
CCN(CC(=O)Nc1ccc2c(c1)OCCO2)C(=O)c1cc(=O)[nH]c2ccccc12	/	-1%	/	1.0%
COCCNC(=S)N(CCc1c(C)[nH]c2ccc(F)cc12)Cc1ccco1	13%	-1%	/	1.3%
CNS(=O)(=O)c1ccc(NC(=S)Nc2ccc3c(c2)OCO3)cc1	-36%	-10%	-3	2.2%
CC1(C)CC(=O)C(c2ccccc2)(c2ccccc2)C(=O)C1	/	-5%	/	0.9%
Cc1ccc(N2CC(O)=C(c3nc4ccccc4c(=O)[nH]3)C2=N)cc1C	-7%	14%	1	8.2%
CCOc1cc(NC(=O)c2cnccn2)c(OCC)cc1NC(=O)c1cccc(F)c1	-1%	/	3	/
CN1CCN(CC(=O)Nc2cccc([N+](=O)[O-])c2)CC1	0%	2%	-2	2.9%
CCSc1nc2c(c(=O)[nH]1)C(c1ccccn1)C1=C(CC(C)(C)CC1=O)N2 (centres undefined)	2%	-12%	2	?
COc1ccc(C(O)c2nc3ccccc3n2C(C)C)cc1 (centres undefined)	19%	-11%	0	-0.4%
C/C(=N\Nc1ccc([N+](=O)[O-])cc1[N+](=O)[O-])C(C)C(C)C (centres undefined)	3%	9%	0	-2.1%
Cc1noc(C)c1CSCC(=O)Nc1ccc(OC(F)F)c(Cl)c1	/	4%	/	-2.8%
CCC(=O)N1CCc2cc(S(=O)(=O)N(CC)c3cccc(C)c3)ccc21	-5%	-11%	0	?
O=C(O)CC(NCc1ccco1)C(=O)OCCCl (centres undefined)	0%	6%	3	-1.7%
CCNc1nc(NCC)nc(N(n2cnnc2)S(=O)(=O)c2ccc(C)cc2)n1	-6%	?	2	0.1%
O=C(Nc1ccc(F)cc1)c1cc(Cl)sc1Cl	-35%	-1%	-4	-2.3%
COc1ccc(-c2nnnn2CCc2ccccc2)cc1	-25%	-2%	5	0.4%
OC(COc1ccc2cc(Br)ccc2c1)CN1CCOCC1 (centres undefined)	-49%	30%	-16	-0.7%
COc1ccc(C2=NN(CCC(=O)NCc3cccs3)C(=O)CC2)cc1	-11%	12%	-20	-0.2%
CCn1c(=O)n(CC)c2cc(S(=O)(=O)Nc3cc(C)cc(C)c3C#N)ccc21	-5%	-13%	-10	-6.2%
C[C@@H]1CC=C[C@H]2[C@H]1C(=O)N(Cc1ccccc1)[C@H]2c1ccc(F)c(-c2ccc(N(C)C)cc2)c1	4%	1%	-2	9.8%
Cc1ccccc1-c1nc(CN(C)C(C)c2ccon2)c(C)o1 (centres undefined)	-19%	6%	-8	-1.5%
CC(C)CCn1c(O)c(N=NC(=O)Cn2ccc(C(F)(F)F)n2)c2ccccc21	-11%	-7%	3	-2.6%
CCCn1c(N2CCN(CC(=O)NCc3cccs3)CC2)nc2ccccc21	-5%	-13%	-1	-4.9%
Cn1nc([N+](=O)[O-])nc1Sc1ccc(C(C)(C)C)cc1	-3%	2%	-3	4.3%
CCNc1nc(NCC)nc(Oc2ccc(OCc3ccccc3)nn2)n1	-5%	/	-4	/
Cc1ccc(Nc2nc(N)nc(CSC(=S)N3CCOCC3)n2)c(C)c1	-68%	-8%	-6	-0.2%
CCOc1ccc(/C(C)=N/N2C(=O)C(CC(=O)Nc3ccc(OC)cc3[N+](=O)[O-])SC2=Nc2cccc(C)c2C)cc1 (centres undefined)	-7%	4%	0	0.7%
COc1cccc(=O)c2c(C)n(-c3cc(C)cc(C)c3)c(C)c12	-7%	?	-17	?
O/N=C1\CCCCc2ccccc21	1%	-17%	9	5.7%
CN1CC2(C)OC(=O)C(Cl)=C2CC1c1ccccc1 (centres undefined)	-10%	-6%	2	7.2%
O=C(NCC(c1ccco1)N1CCc2ccccc21)c1cccc(F)c1 (centres undefined)	/	14%	/	-1.0%
CCCN1CCN(C(=O)CN2C(=O)COc3ccc(S(=O)(=O)N(CC)CC)cc32)CC1	-2%	-6%	/	0.3%
COc1ccc(CCc2nnc(CCC(=O)N(C)Cc3ccncc3C)o2)cc1	-16%	-7%	8	-1.9%
O=C(Nc1ccc(C(=O)N2CCN(c3ccccc3F)CC2)cc1)C1=CSCCO1	-12%	-2%	/	-1.4%

# Following part.
Compound	miR-21 reporter	Rango dissoc inh	GLA inh pH 4.5	Rango-impB inh
O=C(COC(=O)c1cc([N+](=O)[O-])ccc1N1CCOCC1)c1ccc(OC(F)F)cc1OC(F)F	/	3%	/	0.6%
COC(=O)[C@H](C)N(Cc1ccc(Cl)c(Cl)c1)S(=O)(=O)CCN1CCCC1	/	8%	/	1.0%
CC(=O)c1cccc(NC(=O)CN(c2ccc(F)cc2)S(C)(=O)=O)c1	-25%	-1%	6	2.5%
COc1ccc(Br)cc1C(=O)Nc1cccc(NC(=O)c2ccco2)c1	15%	1%	-6	-3.0%
Cc1cccc(OC(C)C(=O)NC2CCS(=O)(=O)C2)c1C (centres undefined)	-1%	1%	/	-0.6%
Cc1ccc2c(c1)CCCN2C(=O)c1cc2ccccc2oc1=O	-17%	17%	2	-6.7%
COc1ccc(/C=C/C(=O)C23CC4CC(CC(C4)C2)C3)cc1CN1CCOCC1	8%	0%	-17	3.0%
O=C(CCn1nnnc1CN1CCOCC1)N1CCC(c2cccc(Cl)c2)C1 (centres undefined)	-4%	-1%	/	-1.6%
Cc1ccc(-c2nc3s/c(=C\c4ccco4)c(=O)n3n2)cc1	-10%	-10%	4	0.5%
O=C(Nc1ccccc1)N(Cc1ccc2c(c1)OCO2)Cc1nc2ccccc2c(=O)[nH]1	-13%	16%	-3	2.8%
O=C(Nc1ccccc1)OCc1cnc(Cl)s1	-34%	32%	4	-2.7%
CC(C)(C)OC(=O)CNC(=O)c1[nH]cnc1C(=O)NC1CCNCC1	/	16%	/	-1.2%
Cc1ccc(S(=O)(=O)Nc2ccc3c(c2)n(C)c(=O)n3C)cc1	2%	11%	/	3.6%
CC1CC(C)CN(c2oc(Cc3ccccc3)nc2C#N)C1 (centres undefined)	-17%	-6%	2	0.3%
C=CCn1c(SCC(=O)NCC)nc2sc3c(c2c1=O)CCC3	-2%	4%	/	4.3%
Cc1ccnc(NC(=O)c2c(O)c3ccccc3n(C)c2=O)c1	-53%	/	1	/
C=CCn1c(Cn2nnc3ccccc32)nnc1SCC(=O)N/N=C/c1cc(Br)cc(OC)c1O	-4%	-6%	-2	?
COC(=O)c1c(NC(=O)COc2ccc(Cl)cc2Cl)sc2c1CC(C)(C)NC2(C)C	-4%	22%	/	-0.3%
O=c1[nH]c(SCC2CCCCO2)nc2ccccc12 (centres undefined)	-47%	-19%	/	-4.0%
COc1ccc(OC)c(NC(=O)CN2C(=O)C3(OCCCO3)c3ccccc32)c1	-11%	1%	3	-3.7%
O=C(NCC1CCCO1)c1cc(-c2ccccc2)nc2ccccc12 (centres undefined)	10%	3%	-10	-0.3%
CCN(C1CCCCC1)S(=O)(=O)c1cc2c3c(c1)CCN3C(=O)CC2	/	-8%	/	3.8%
O=C(c1cc(-c2cccc(O)c2)on1)N1CCCCCC1	-52%	13%	/	0.0%
CC(C)N(C(=O)[C@H]1C[C@H](CC(=O)NCCN2CCOCC2)C(=O)N2CCc3c([nH]c4cc(-c5ccco5)ccc34)[C@]12C)C(C)C	/	22%	/	1.7%

# Compound profiles (already shown).
# CC(C)N(C(=O)[C@H]1C[C@H](CC(=O)NCCN2CCOCC2)C(=O)N2CCc3c([nH]c4cc(-c5ccco5)ccc34)[C@]12C)C(C)C reads miR-21 reporter = /; Rango dissoc inh = 22%; GLA inh pH 4.5 = /; Rango-impB inh = 1.7%
# C=CCn1c(SCC(=O)NCC)nc2sc3c(c2c1=O)CCC3 reads miR-21 reporter = -2%; Rango dissoc inh = 4%; GLA inh pH 4.5 = /; Rango-impB inh = 4.3%

# (cont.)
Compound	miR-21 reporter	Rango dissoc inh	GLA inh pH 4.5	Rango-impB inh
CCN(C(=O)CCc1nnc2ccc(N3CCC4(CC3)OCCO4)nn12)c1ccccc1	-2%	1%	/	-0.5%
CC(=O)Nc1ccccc1C(=O)N1CCN(c2cccc(C)c2C)CC1	1%	-9%	-8	-4.0%
NC(=O)c1c(NC(=O)C2CCCO2)sc2c1CCCC2 (centres undefined)	-53%	-13%	0	-7.3%
CCC(CC)C(=O)NCCc1cc2ccc(C)c(C)c2[nH]c1=O	0%	/	3	/
